TRPV1 PAM = human TRPV1 potentiation; Q8NER1; TRPV1-expressing cells, Fluo-8 calcium influx, capsaicin EC20 potentiation; host cell line not named in the record; control for the full effect not named in the record; potentiation, % at 8.33 µM; 0.02% of 320,000 active; active means potentiation above 80%; inconclusive means 30% to 80%; inactive means below 30%; also: 0% is about no effect
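Cells expressing TRPV1 were dye-loaded with Fluo-8 and read kinetically: 10 s baseline, 3 min after compound (agonist portion), then 2 min after EC20 capsaicin (allosteric enhancer portion). Calcium-bound dye fluorescence at 480/520 nm.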
Sfp PPTase inh = Sfp phosphopantetheinyl transferase inhibition. AID 1490. 3.5% of 310,000 active. Biochemical Sfp PPTase activity, qHTS. Potency, µM, without a hit: max response, negative = inhibition, actives largely listed as inhibitors; active = well fitted inhibition curve with a large enough effect; inconclusive = small, poorly fitted or top-dose-only effect, or another doubt; inactive = no such curve, though single readings can be large or run the other way;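 also: the enzyme is Sfp with the accession as filed and its product quenches rhodamine fluorescence; potency is read from the fitted curve at half-maximal effect; 0% = enzyme reaction without inhibitor and -100% = no enzyme wells; top concentration of the series not given in the record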
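After 15 min at room temperature with compound, 15 nM Sfp received 5 uM rhodamine-CoA plus 12.5 uM BHQ-2-ybbR (50 mM Hepes pH 7.6, 10 mM MgCl2). Rate came from the fluorescence difference over 30 min, ex 525/em 598 nm.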
ClpP mod = qHTS Assay for Activators of ClpP. ATP-dependent Clp protease proteolytic subunit (Bacillus subtilis (strain 168)), P80244. purified B. subtilis ClpP, FRET peptide cleavage, 20 min. Potency, µM (highest dose often 57.5 µM), for inactives: at the highest dose activity change, negative = active. 1.9% of 340,000 active; active = well fitted falling curve with a large enough effect; inconclusive = small, poorly fitted or top-dose-only effect; inactive = no such curve, though single readings can be large or run the other way; also: potency is read from the fitted curve at half-maximal effect; the source files actives as falling curves though it sought activators and does not explain the sign; nearly all actives have a fitted effect of over 65% in size; many hits overshoot -100%
Target sequence (P80244 whole entry, looked up): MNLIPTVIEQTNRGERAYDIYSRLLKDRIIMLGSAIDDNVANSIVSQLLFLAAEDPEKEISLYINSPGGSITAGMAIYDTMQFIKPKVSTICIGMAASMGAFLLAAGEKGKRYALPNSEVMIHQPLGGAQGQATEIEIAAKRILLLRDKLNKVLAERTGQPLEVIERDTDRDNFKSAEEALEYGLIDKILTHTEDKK
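ClpP 10 microg/mL final, pH 8 Tris/KCl buffer with BSA, glycerol, Tween-20; compound pinned in; FRET-FV substrate; RT 20 min; Ex320/Em430; ΔFRET vs ADEP 5.8 microM, DMSO, no enzyme.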
PINK1 expr mod = PINK1 expression modulation | PINK1 immunofluorescence, high-content cytometry, 24 h | Potency, µM (highest dose often 76.6 µM), without a hit: top-dose activation (PINK1 increase), actives largely listed as activators | 0.2% of 410,000 active | AID 624263; active = well fitted activation curve with a large enough effect; inconclusive = small, poorly fitted or top-dose-only effect; inactive = flat fitted curve, though single readings scatter; cell line not stated here;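 also: potency is read from the fitted curve at half-maximal effect; % of control where 0% means no effect; nearly all actives have a fitted effect of over 65% in size; a mitochondrial uncoupler was the plate control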
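Cells are seeded, rested 12 hours, then given compound at five concentrations or DMSO for 24 hours. After fixation, blocking and antibody staining, PINK1 amount and mitochondrial localization are scored; CCCP serves as control.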
Menin-MLL FL inh = inhibitors of human menin-MLL interaction, wild-type MLL peptide; Fluorescence polarization, fluorescein-MLL peptide displacement from menin; AID 1766; 290,000 tested, under 10 active; FP activity change, % at 61.4 µM; inconclusive = falling polarisation curve, or a change in total fluorescence; inactive = total fluorescence flat and polarisation flat or rising; no compound was filed as active; the % refers to the polarisation; negative = inhibition;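 also: % of control where 0% means no effect; inhibitors lower the polarisation; unlabelled MLL peptide was the positive control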
TRPML1 ag = agonists of human TRPML1 channel | TRPML1-expressing cells, Ca2+ dye fluorescence, FDSS; host cell line not named in the record; reference of the full effect not given here | 0.12% of 410,000 active | activation, % (no concentration beside the values); in the data active = activation above about 50%; inconclusive = about 30% to 50%; inactive = below about 30%; also: 0% is about no effect; the text of the record puts the active cut at 80%
Target sequence (Q9GZU1 whole entry, looked up): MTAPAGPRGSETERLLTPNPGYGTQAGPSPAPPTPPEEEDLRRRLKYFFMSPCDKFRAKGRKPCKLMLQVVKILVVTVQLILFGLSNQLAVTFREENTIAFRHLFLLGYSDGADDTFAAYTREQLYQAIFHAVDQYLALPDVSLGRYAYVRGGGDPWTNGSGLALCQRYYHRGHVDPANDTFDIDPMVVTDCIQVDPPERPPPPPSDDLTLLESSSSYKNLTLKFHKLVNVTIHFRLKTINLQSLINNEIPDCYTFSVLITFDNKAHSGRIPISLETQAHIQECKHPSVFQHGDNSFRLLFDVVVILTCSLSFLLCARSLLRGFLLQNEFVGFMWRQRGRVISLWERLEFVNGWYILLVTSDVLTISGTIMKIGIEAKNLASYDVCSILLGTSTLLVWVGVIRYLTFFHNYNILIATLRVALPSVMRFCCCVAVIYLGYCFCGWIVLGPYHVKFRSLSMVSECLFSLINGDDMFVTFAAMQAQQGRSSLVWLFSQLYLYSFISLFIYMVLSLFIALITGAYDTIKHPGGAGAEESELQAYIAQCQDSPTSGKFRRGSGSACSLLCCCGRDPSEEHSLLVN
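TRPML1-DL cells, Tet-induced overnight (~16 h, 37 degrees C), loaded 45-90 min at room temperature with Ca8 no-wash calcium dye plus quencher. FDSS fluorescence: 10 s baseline, compound pin-transfer, 110 s agonist read, then EC80 54-4 (4uM final) and 110 s antagonist read.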
TRPML1 inh = inhibitors of human TRPML1 channel; Q9GZU1; TRPML1-inducible cells, Ca2+ dye fluorescence, FDSS; active compounds read low; inhibition of EC80 agonist-evoked calcium signal; activity change, negative = inhibition, % (test concentration not listed); 0.02% of 390,000 active; AID 624415; in the data active means activity change below about -50%; inconclusive means about -30% to -50%; inactive means above about -30%;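 also: stimulus is agonist 54-4 at its EC80 concentration; % is scaled to controls: 0 for no effect and ±100 for the full control effect; compound concentration not given in the record; the text of the record puts the active cut at -80%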
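Tet-induced TRPML1-DL cells loaded with Ca8 no-wash calcium dye were read kinetically on FDSS. Compound addition was followed by EC80 agonist 54-4 (4 uM final); inhibition was read over 110 s.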
Numbers without * were called inactive; ? = inconclusive; . = not tested or not shown; & = joins results of further samples; [ ] = dose if it differs, or a comment.

SMILES	TRPV1 PAM	Sfp PPTase inh	ClpP mod	PINK1 expr mod	Menin-MLL FL inh	TRPML1 ag	TRPML1 inh
COc1cc(/C=C2\C(=N)N3N=C(S(C)(=O)=O)SC3=NC2=O)ccc1OS(=O)(=O)c1ccc(C)cc1	5.8	-23.8%	-24.9%	4.1%	1.9	0.7	3.4
O=C(O)c1cccc(Sc2ccc(Br)cc2C(=O)O)c1	3.1	.	-3.7%	-1.3%	.	0.2	13.9
Cc1ccccc1C(=O)NNC(=S)NC(=O)c1cccnc1	-0.2	?	0.9%	3.4%	0.5	-0.8	-0.2
COc1cc2c(cc1OC)C(=Cc1ccc(N(C)C)cc1)C=C2	.	.	.	7.5%	.	0.0	12.2
Cc1ccc(Cl)cc1NC(=O)Cn1nc(-c2cccs2)ccc1=O	-1.6	-22.7%	.	6.8%	7.0	0.0	2.9
COc1ccc(C2(C)NC(=O)N(CC(=O)NCCC3=CCCCC3)C2=O)cc1OC (configuration not stated)	14.0	19.9%	-1.7%	4.4%	-2.5	-1.0	15.4
COc1ccc(C(=O)c2ccccc2C(=O)c2ccccc2)cc1	.	.	-1.1%	-2.9%	.	1.6	15.1
O=C(O)C1C2C=CC3(O2)C1C(=O)N1c2ccccc2COC13 (configuration not stated)	?	12.5%	-4.4%	-0.8%	7.1	0.1	-1.7
Cc1cccc(CS(=O)(=O)Cc2ccc(C(=O)NC(C)c3ccccc3)o2)c1 (configuration not stated)	3.5	8.8%	-1.7%&-0.6%	3.2%&-0.5%	2.1	0.9&0.8	25.6&6.6
O=C(Nc1ccc2c(c1)OCO2)C1CCN(c2ccc(S(=O)(=O)N3CCOCC3)cc2)CC1	2.2	14.1%	-2.8%	?	0.2	-0.1	1.4
COc1cc(C(=O)NCc2ccc(F)cc2)cc(Cl)c1OC	-17.1	-6.0%	0.3%	0.2%	3.5	-0.2	-0.2
COc1ccc(-c2nc3cnccn3c2Nc2ccc3c(c2)OCO3)cc1	1.7	-16.4%	-0.7%	1.8%	1.5	0.9	-3.0
O=C(CCCCCn1c(=S)[nH]c2ccc(N3CCOCC3)cc2c1=O)NCc1ccc2c(c1)OCO2	2.2	-27.6%	-1.5%	4.2%	-2.4	-0.5	3.6
CCCCNC(=O)c1onc(CSc2cccc(OC)c2)c1C(=O)O	22.4	7.2%	-0.1%	-0.9%	-0.1	-0.3	12.5
CC(C)CC(=O)Nc1ccc2c(c1)oc1ccccc12	-15.1	7.9%	-7.0%	3.4%	4.6	-0.6	17.6
CCOc1ccc(N2CC(C(=O)Nc3cccc(S(=O)(=O)NC4=NCCC4)c3)CC2=O)cc1 (configuration not stated)	1.9	10.9%	1.2%	-0.7%	4.3	-0.9	-13.4
NC(=O)Cn1cc(C(=O)C(=O)N2CCOCC2)c2ccccc21	2.3	2.8%	-1.1%	-1.0%	-2.3	0.6	5.9
Cc1cc(/C=C2\C(=O)NN(c3ccccc3)C2=O)c(C)n1-c1ccccc1O	10.4	5.0%	3.6%	7.4%	3.1	1.0	-6.6
CC[C@H](C)[C@H](NC(N)=O)C(=O)Nc1ccc2c(c1)OCO2	3.9	12.2%	-2.5%	0.8%	1.9	-0.6	11.1
CCN1CCN(C(c2ccc(C(F)(F)F)cc2)c2ccc3cccnc3c2O)CC1 (configuration not stated)	-12.6	-22.5%	-1.6%	13.0%	-1.4	0.2	15.6
Cc1ccccc1OCC(=O)Nc1ccc(S(=O)(=O)N(Cc2ccccc2)c2ccccc2)cc1	.	.	-5.1%	2.4%	.	-0.1	-1.4
Cc1ccc(NC(=O)c2cnc(SCC(=O)N3CCOCC3)n(C)c2=O)cc1	.	.	1.0%	26.0%	.	0.5	13.8
Cc1ccc(S(=O)(=O)N2CCN(C(=O)N3CCOCC3)CC2)cc1C	-18.9	7.0%	1.2%	1.5%	-1.1	-0.2	-0.9
C/C=C/C(=O)OCC(=O)Nc1cc([N+](=O)[O-])ccc1Cl	0.1	12.5%	-1.6%	0.7%	4.9	0.2	11.5
CCN(CC(=O)NCc1ccc(F)cc1)C(=O)/C=C/c1ccc(OC)cc1	-6.1	0.6%	.	9.4%	0.8	-0.5	0.4

Next section.
SMILES	TRPV1 PAM	Sfp PPTase inh	ClpP mod	PINK1 expr mod	Menin-MLL FL inh	TRPML1 ag	TRPML1 inh
O=C(O)CCCCCNS(=O)(=O)c1cccc2c1C(=O)c1ccccc1C2=O	-9.1	?	0.4%	-3.2%	0.4	-0.2	9.6
CS(=O)(=O)c1ccc2nc(NC(=O)c3cccc([N+](=O)[O-])c3)sc2c1	8.1	-12.2%	-0.7%	3.0%	-2.4	-0.9	7.5
C[C@@H]1NC(=O)c2cc([N+](=O)[O-])cc(I)c2OCC[C@@H](C(=O)NC(CC(=O)O)C(N)=O)NC(=O)[C@H](CC(N)=O)NC1=O (some centres not stated)	14.6	?	1.1%	1.9%	1.8	-0.5	-22.1
COc1ccc(S(=O)(=O)Nc2ccc(F)c(F)c2)cc1Cl	-10.3	-14.0%	0.2%	6.9%[38.3 µM]	5.9	1.3	-10.1
C[C@H](CO)N1C[C@H](C)[C@@H](CN(C)C(=O)Nc2ccc(C(F)(F)F)cc2)Oc2c(cccc2N(C)C)C1=O	.	.	-3.4%	0.1%	.	-0.2	8.8
Cc1ccc(NC(=S)NC2CC3CCC(C2)N3Cc2ccco2)c(C)c1 (configuration not stated)	8.6	7.0%	-1.4%	.	0.1	-0.2	5.9
COc1ccc(C)cc1NC(=S)NN1CCN(C)CC1	6.2	11.8%	.	2.3%	-0.4	0.9	-0.6
Nc1nc(=S)ss1	.	.	.	1.0%	.	1.1	-18.0
COc1ccc(NC(=O)Cn2cc(S(=O)(=O)c3ccccc3)c(=O)c3cc4c(cc32)OCO4)cc1	.	.	-13.4%	0.7%	.	0.0	8.5
COc1ccc2ccc(OCC(=O)Nc3cc(C)on3)cc2c1	19.7	.	9.3%	0.4%	.	-0.1	-2.1
Cc1n[nH]c(C)c1S(=O)(=O)N1CCOCC1	14.7	-0.4%	-0.4%	-1.5%	4.3	-0.1	-12.4
CN(C)c1ccc(/C=N/NC(=O)C2COc3ccccc3O2)o1 (configuration not stated)	3.6	?	-0.2%	2.9%	3.5	0.0	15.5
Cc1cccc(C(=O)NCC(=O)OCc2cc(=O)n3ccsc3n2)c1	6.4	.	?	-2.5%	.	0.0	10.3
N#CCCN(C(=O)COC(=O)c1ccc(CNS(=O)(=O)c2ccc(F)c(Cl)c2)cc1)c1ccc(F)cc1	3.3	6.6%	-0.5%	3.9%	0.3	3.3	1.6
O=C(N/N=C/c1c(Cl)nc2ccccn2c1=O)c1cccnc1	.	-11.6%	8.7%	16.3%	12.9	-0.6	2.8
Cc1cccc(-n2nc3c(c2NC(=O)c2ccco2)CS(=O)C3)c1C (configuration not stated)	21.4	15.7%	.	0.4%	3.9	1.0	12.6
C/C(NCc1ccccc1)=C(\C#N)C(=O)NCc1ccccc1	-4.6	-3.2%	0.4%	-0.2%	-2.5	0.5	9.8
Cc1c(NC(=O)c2nn(CC(C)C)c(=O)c3ccccc23)c(=O)n(-c2ccccc2)n1C	4.8	.	-5.6%	-1.3%	.	2.1	11.6
O=C(c1ccc2c(c1)N(Cc1ccccc1)C(=O)c1ccccc1S2(=O)=O)N1CCCC1	.	.	0.1%	-0.8%	.	2.6	28.5
O=C(Cc1ccc(Cl)cc1)NC1CC1	-12.5	13.6%	.	0.9%	-0.1	-0.3	15.9
O=C(COC(=O)/C=C/c1ccc(F)cc1)NC1CC1	.	.	-3.4%	-0.1%	.	0.4	-12.4
COc1ccc(-n2c(=O)cnc3cnc(OC)nc32)cc1	.	29.2%	.	0.9%	0.2	.	.
O=S(=O)(NCc1ccccn1)c1ccccn1	-14.7	-12.1%	1.0%	-1.2%	-1.6	-0.1	13.7
O=C(NCc1cccc(Br)c1)C1CC(c2ccccc2C(F)(F)F)=NO1 (configuration not stated)	-6.0	-10.6%	0.4%	6.8%	-0.1	0.9	-8.7
Cc1ccccc1N1CC(C(=O)Nc2nnc(SCC(=O)Nc3nccs3)s2)CC1=O (configuration not stated)	0.2	?	0.9%	-0.8%	8.7	0.2	-20.7

Further entries.
SMILES	TRPV1 PAM	Sfp PPTase inh	ClpP mod	PINK1 expr mod	Menin-MLL FL inh	TRPML1 ag	TRPML1 inh
COc1ccc2nc(SCC(=O)Nc3ccc(S(=O)(=O)Nc4onc(C)c4C)cc3)[nH]c2c1	-14.1	12.4%	-17.2%	-2.6%	0.7	0.8	-19.0
CCOC(=O)N1CCC(NC(=O)c2cnn(-c3ccc(OC)cc3)c2C2CCN(C(=O)OC(C)(C)C)CC2)CC1	.	.	0.9%	-1.2%	.	0.5	30.6
O=C(CN(Cc1ccccc1)C(=O)CNS(=O)(=O)c1ccc(F)cc1)NCc1ccco1	1.9	9.8%	.	2.2%	.	-0.4	2.1
Nc1ccccc1-c1nnc(SCc2ccccc2F)[nH]c1=O	-5.5	9.2%	0.4%	-1.4%	10.6	-1.3	-1.7
O=C1CCC(=O)N1c1ccccc1-c1ccccc1	-2.4	8.2%	-8.2%	0.0%	0.7	-0.4	-5.6
NC1=NC(c2ccc(Cl)cc2)C(C(=O)c2ccccc2)N1 (configuration not stated)	11.0	15.7%	-2.4%	6.5%	-0.1	-0.7	-7.7
Cc1ccc(Nc2nc(N)nc(CN3CCN(Cc4ccc5c(c4)OCO5)CC3)n2)cc1	-7.4	1.7%	-0.5%	-0.2%	1.3	-0.3	0.0
Nc1cc(-c2ccc(Br)cc2)nn1Cc1ccccc1	5.7	-5.6%	1.5%	0.4%	-2.1	0.2	15.1
CC(C)C1N(S(=O)(=O)c2ccccc2)CCN1S(=O)(=O)c1ccccc1	-9.1	15.4%	-1.8%	6.3%[38.3 µM]	5.9	1.7	34.9
COc1ccc(-n2cc(C(=O)Nc3cc([N+](=O)[O-])ccc3OC)c3ccccc3c2=O)cc1	-7.5	11.0%	-16.9%	2.2%	2.3	2.1	25.5
CC[C@]12c3[nH]c4cc(CCC(=O)N(C)C)ccc4c3CCN1C(=O)[C@@H](CC(=O)NCCN1CCOCC1)C[C@@H]2C(=O)N1CCN(C(=O)c2ccco2)CC1	.	.	-1.3%	-1.0%	.	-0.7	-3.6
O=C(NCC(c1ccco1)N1CCCC1)c1cc(=O)[nH]c2ccccc12 (configuration not stated)	.	.	-10.9%	-1.3%	.	-0.4	5.0
Cc1ccc(CCC(=O)Nc2ccccc2C(=O)O)o1	14.5	-2.1%	-3.7%	-1.1%	.	1.7	0.6

Screening data deposited in PubChem by National Center for Advancing Translational Sciences (NCATS).
